VDR inh: inhibitors of human vitamin D receptor | P11473 | 400,000 compounds, 0.93% hits | Potency, µM, for the others: max response, negative = inhibition, hits mostly inhibitors | VDR-SRC2-3 peptide fluorescence polarization, 2 h; active = well fitted inhibition curve with a large enough effect; inconclusive = small, poorly fitted or top-dose-only effect, or another doubt; inactive = no such curve, though single readings can be large or run the other way; also: series mostly up to about 120 µM
Target sequence (P11473 whole entry, looked up): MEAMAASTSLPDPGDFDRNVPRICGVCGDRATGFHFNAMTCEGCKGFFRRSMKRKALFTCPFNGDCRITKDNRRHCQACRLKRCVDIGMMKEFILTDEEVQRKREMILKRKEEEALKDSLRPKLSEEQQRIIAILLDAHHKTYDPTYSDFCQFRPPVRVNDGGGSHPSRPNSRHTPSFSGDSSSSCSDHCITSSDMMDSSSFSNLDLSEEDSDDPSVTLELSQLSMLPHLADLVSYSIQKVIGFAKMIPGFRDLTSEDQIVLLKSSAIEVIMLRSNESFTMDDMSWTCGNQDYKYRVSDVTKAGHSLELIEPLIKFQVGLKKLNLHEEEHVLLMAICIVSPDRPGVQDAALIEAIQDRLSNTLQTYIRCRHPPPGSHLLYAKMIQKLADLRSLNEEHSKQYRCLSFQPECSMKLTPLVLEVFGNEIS
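The screen uses fluorescence polarization to detect compounds that interfere with recruitment of the SRC2-3 coactivator peptide to VDR; plates are read after 2 h at room temperature.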
An asterisk follows results filed as active; ? = inconclusive; & = joins results of further samples. % is scaled to controls: 0 for no effect and ±100 for the full control effect; potency is read from the fitted curve at half-maximal effect. The list is partial, so the mix of outcomes need not match the whole.

canonical_smiles	VDR inh
CNS(=O)(=O)c1cccc(C(=O)NCC(c2cccs2)N(C)C)c1 (configuration not stated)	-27.9%
CCOC(=O)Nc1ccc2c(C)cc(=O)oc2c1	-18.0%
CSCC[C@H](NC(=O)c1ccco1)c1nnc2ccccn12	-15.4%
Cc1cc(NC(=O)CN(C)CC(=O)Nc2ccc(F)c(F)c2F)no1	10.7%
CC1=NN(C(C#N)c2ccccc2C)C(C)(C)C1 (configuration not stated)	-11.4%
C=CCn1c(CNC(=O)CCC)nc2ccccc21	10.5%
CCOc1ccc(CCNC(=O)c2ccccc2OCc2c(C)noc2C)cc1OCC	-8.7%
COc1ccc(NC(=O)CSc2nccn2Cc2ccc(F)cc2)c(OC)c1	-9.5%
CCOc1ccc(/C=N/Nc2cc(=O)n(C)c(=O)n2C)cc1	-9.1%
COc1ccc(Cc2nnc(SC)[nH]c2=O)cc1OC	-15.7%
CC(NC(=O)c1ccccc1SCC(=O)N1CCCC1)c1ccccc1 (configuration not stated)	?
CCN(C(=O)/C=C/c1ccc(OC)cc1)C1CCS(=O)(=O)C1 (configuration not stated)	-4.6%
CCC(Sc1nnc(C)n2c1cc1sccc12)C(=O)Nc1ccccc1F (configuration not stated)	13.6%
CCCCN(C(=O)CSc1nnc(-c2ccccc2)o1)c1c(N)n(CCC)c(=O)[nH]c1=O	-16.2%
O=C(O)c1ccc(CSc2nc3ccccc3c(=O)n2-c2ccccc2)cc1	-21.9%
COc1ccccc1Cn1c(=S)[nH]c2cc(C(=O)NCCCN3CCOCC3)ccc2c1=O	-4.0%
O=C(NC1CCS(=O)(=O)C1)C1CCCC1 (configuration not stated)	-11.8%
CCOC(=O)c1ccccc1NC(=O)COC(=O)CCC(=O)c1ccc(C)cc1	4.0%
Cc1ccc2nc(-c3ccc(NC(=O)CSc4ccccc4)cc3)[nH]c2c1	-7.5%
O=C(Cn1cnc2scc(-c3ccc(F)cc3)c2c1=O)NCC(c1ccco1)N1CCCC1 (configuration not stated)	-27.9%
O=S(=O)(NC1CCCCC1)c1cccc2nsnc12	15.2%
O=C(COc1ccc([N+](=O)[O-])cc1)Nc1ccc(C(=O)Nc2ccccc2C(=O)O)cc1	-9.0%
COCCN(C(=O)/C=C/c1ccccc1)c1nnc(-c2cccnc2)s1	-0.7%
COC(=O)c1cc(=O)c2ccc(OC)cc2o1	-6.1%
CCOC(=O)Cn1c(=NC(=O)CSC(C)=O)sc2cc(F)ccc21	-4.6%
Cc1cc2n(n1)CCCN2C(=O)Nc1ccccc1C(F)(F)F	9.7%
CN(CCC1CCOCC1)C(=O)c1cc(COc2c(F)cccc2F)on1	-7.3%
Cc1ccc(N=Cc2nc(-c3ccco3)oc2O)cc1	20.9%
CCOCCCNC(=S)N1CCC(NC(=O)c2ccco2)CC1	9.4%
Cn1c(SCC(N)=O)nnc1-c1cnccn1	-2.4%

Pulled by compound from above:
canonical_smiles	VDR inh
Cc1ccc(N=Cc2nc(-c3ccco3)oc2O)cc1	20.9%
Cc1cc2n(n1)CCCN2C(=O)Nc1ccccc1C(F)(F)F	9.7%
COCCN(C(=O)/C=C/c1ccccc1)c1nnc(-c2cccnc2)s1	-0.7%

The list continues.
canonical_smiles	VDR inh
CCCSc1nc(-c2ccccc2)[nH]c1S(=O)(=O)c1ccc(C)cc1	-5.0%
S=c1[nH]nc(C2CCCCC2)n1/N=C/c1ccccc1	-8.1%
Cc1nn(-c2ccccc2)c(C)c1NC(=O)COC(=O)/C=C/c1ccccc1	-9.5%
COc1ccc(Nc2nc3ccccc3nc2-n2nc(C)cc2C)cc1	-9.0%
COc1ccc(OC)c(S(=O)(=O)Nc2ccc3oc4c(c3c2)C(=O)CCC4)c1	7.5%
COC(=O)CCC(=O)c1oc2ccc(Cl)cc2c1NC(=O)CCCN1C(=O)c2ccccc2C1=O	11.3%
CCOc1ccc(C(C#N)N2CCOCC2)cc1OC (configuration not stated)	-17.7%
CC(C)CN1CCN(Cc2nc3ccccc3s2)CC1CCO (configuration not stated)	-1.5%
CCCn1c(CCC(=O)O)nc2cc(S(=O)(=O)N(CC)CC)ccc21	-12.0%
Cc1nnc(NC(=O)c2ccc(C)c(S(=O)(=O)N3CCCCCC3)c2)s1	5.6%
COc1ccc(CCNC(=O)c2ccc3c(c2)N(Cc2ccccc2)CCS3)cc1OC	-0.6%&-5.8%
CCOC(=O)CNC(=O)CSc1ncnc2c1cnn2-c1ccc(Cl)cc1	-7.2%
C#CC(CC)(CC)NC(=O)c1nn(-c2ccccc2Cl)c(C)cc1=O	4.9%
COc1ccc(C(C)=O)cc1CSc1ncccn1	2.5%
Nc1ccc2c(c1)N=[N+]([O-])c1cc(N)ccc1C2	-2.4%
CCc1ccc(CN(C(=O)Nc2cccc(Cl)c2)c2ccccn2)cc1	8.3%
Cc1nc(OCc2ccccc2)c2ccccc2n1	-9.0%
Cc1nc(-c2ccccc2)sc1C(=O)/C=C/N(C)C	-14.2%
Nc1nnc(COc2cccc(C(F)(F)F)c2)s1	1.7%
Cc1ccc(S(=O)(=O)N(CC(=O)NCC2CCCO2)C2CCCCC2)cc1 (configuration not stated)	12.2%
O=[N+]([O-])c1ccc(N/N=C/c2ccc[nH]2)cc1	-0.3%
C/C(=N\NC(=O)C1CC1)c1ccc2c(c1)OCCO2	-6.3%
CCN1CCN(C(=O)c2nn(C)c3c2CS(=O)(=O)c2ccccc2-3)CC1	-5.8%
O=C1c2ccc([N+](=O)[O-])cc2C(=O)N1c1c[nH]c(=O)[nH]c1=O	6.6%
CC1Cc2ccccc2N1S(=O)(=O)c1cccc(C(=O)NCc2ccccn2)c1 (configuration not stated)	?
CC(C(=O)Nc1sccc1C(N)=O)N1C(=O)C2CC=CCC2C1=O (configuration not stated)	-1.0%
COC(=O)/C=C1/SC(=NC(=O)c2cccc([N+](=O)[O-])c2)NC1=O	?
CC(C(=O)NCCCn1ccnc1)(c1ccccc1)c1ccccc1	-5.3%
CCNc1nc(OCCNC(C)=O)nc(N(C)C)n1	-0.9%
COC(=O)c1[nH]c2cc(OC)ccc2c1NC(=O)CCN1CCN(Cc2ccc3c(c2)OCO3)CC1	9.2%
Cc1ccccc1NC(=O)Cc1nc(COC(=O)c2cc([N+](=O)[O-])ccc2N)cs1	15.3%
COc1ccc(-c2nc(CSc3nncn4c3cc3sccc34)c(C)o2)cc1OC	12.6%
CCOc1cc(C(c2c(C)[nH][nH]c2=O)c2c(C)[nH][nH]c2=O)ccc1OS(=O)(=O)c1ccccc1	?
CCO[C@H]1OC(C(=O)NCc2ccccc2)=C[C@@H](c2ccc(Br)cc2)[C@@H]1CCCO	-12.1%
CC1NC(=O)N(C)C2NC(=O)N(C)C(c3ccccc3)C12 (configuration not stated)	9.6%
Cc1cccc(NC(=O)c2ccc(NS(=O)(=O)c3c(C)noc3C)cc2)c1	3.1%
CN1CCN(C(=O)c2cc3ccccc3cc2O)CC1	-10.3%
CC1CCCN(C(=O)CSc2c3c(nc4cc(Cl)ccc24)CCCC3)C1 (configuration not stated)	?
O=C(CSc1nc(=O)n(CCN2CCOCC2)c2c1CCC2)Nc1ccc(Cl)c(Cl)c1	1.9%
Cc1cccc(Nc2nc(-c3ccccc3)cs2)n1	-2.0%
Cc1cc(C)cc(N2C(=O)CSC23C(=O)N(CC(N)=O)c2ccccc23)c1 (configuration not stated)	6.3%
O=C(O)c1cccnc1C(=O)N1CCc2c([nH]c3ccccc23)C1C(F)(F)F (configuration not stated)	3.2%
COc1ccc(N2CC(NC(=O)C3CC3)CC2=O)cc1OC (configuration not stated)	15.8%
O=C(CSc1ccc(-c2ccc(Cl)cc2)nn1)N1CCCc2ccccc21	-1.2%
COC(CNC(=O)c1cc(C)nn1-c1ccccc1)OC	-11.6%
CCOc1ccc(OCC)c(NS(=O)(=O)c2cc(-c3onc(C)c3C)ccc2OC)c1	6.0%
O=C(Cc1n[nH]c(=O)c2ccccc12)OCC(=O)c1ccc(F)cc1	-5.6%
c1ccc(Cc2nc3ccccc3o2)cc1	-3.8%
CCOc1ccc(C(=O)COC(=O)C2CCN(c3ccc(C(F)(F)F)cn3)CC2)cc1	0.5%
O=C(Nc1ccccc1Br)N1CCC(CN2CCCC2)CC1	6.5%
COc1ccccc1CNc1ncnc2ccc(-c3cccc(NS(C)(=O)=O)c3)cc12	0.7%
CCC(=O)N1CCc2cc(S(=O)(=O)NCCCN3CCN(Cc4ccccc4)CC3)ccc21	8.4%
CC12CCCCC1N(O)C(=O)C(=O)N2O (configuration not stated)	-10.6%
CC1CCCN(C(=O)CN2C(=O)c3ccccc3C2=O)C1 (configuration not stated)	4.6%
Cn1cccc1Cc1nnc(SCC(=O)NC2CCCCC2)n1-c1ccc(F)cc1	-18.3%
COc1ccc(NC(=O)CSc2nnc(-c3ccco3)n2N)cc1Cl	1.2%
O=c1c2ccccc2nc2n1CCCCN2	-7.6%
O=C(CCNS(=O)(=O)c1ccccc1Cl)OCc1nnc(-c2ccccc2Cl)o1	0.3%
Cc1cccc(N2CN(S(=O)(=O)c3cccc([N+](=O)[O-])c3)c3nc4ccccc4nc32)c1	-10.9%
CC1CCC2C(=O)N(c3cccc(C(=O)Nc4ccccc4Cl)c3)C(=O)C2C1 (configuration not stated)	7.7%

Additional results:
canonical_smiles	VDR inh
Cc1cc(NC(=O)CCC(=O)N(c2ccc(F)cc2)C(C(=O)NC2CCCC2)c2ccncc2)no1 (configuration not stated)	-14.4%
Cc1ccc(NC(=O)CCCn2c(=O)c3cccn3c3ccccc32)cc1Cl	-6.8%
CN(C(=O)c1cc2c(Cl)nc3ccccc3c2s1)c1cccc(C(F)(F)F)c1	5.1%
COc1ccc(N2CCN(C(=S)NCc3ccc(C)cc3)CC2)cc1	6.3%
CC(NCc1ccc(F)cc1)C(=O)Nc1cc(S(=O)(=O)N2CCCCC2)ccc1Cl (configuration not stated)	-3.6%
C=CCN1C(=O)c2ccc(C(=O)N3CCC(C(N)=O)CC3)cc2C1=O	13.9%
CC(=O)N1CCN(C(=O)c2cccc(S(=O)(=O)NCc3ccccc3)c2)CC1	-10.4%
COCCn1c(=O)c(-c2ccc(Cl)cc2)nc2cnc(OC)nc21	-4.8%
COc1ccc(CC(=O)Nc2ccccc2NC(=O)Cc2ccc(OC)cc2)cc1	17.3%
Cc1cccc(OCC2=NS(=O)(=O)c3ccccc3N2)c1	-3.0%
Cc1nn(CCC(=O)NCc2ccc(N(C)C)cc2)c(=O)c2nn(-c3ccccc3)c(C)c12	0.8%&-5.3%
O=C(Nc1ccc2c(c1)OCO2)N1CCN(c2ccccc2Cl)CC1	-5.5%
COc1ccc(OCC(=O)NCCCCCCNC(=O)COc2ccc(OC)cc2)cc1	11.0%
COc1ccccc1C(C)NC(=O)Cc1ccc(S(=O)(=O)N2CCOCC2)s1 (configuration not stated)	-5.6%
CC1(C)CC(=O)C(C=Nc2ccccc2Sc2ccccc2)=C(O)C1	-5.7%
O=C(CN1C(=O)c2ccccc2C1=O)NCC(=O)OCC(=O)c1cccc([N+](=O)[O-])c1	2.6%
O=C(O)c1cccc(S(=O)(=O)Nc2ccccc2N2CCOCC2)c1	-6.7%
Cc1cccc(N2CCN(C(=O)c3ccc(CS(=O)(=O)c4ccccc4C)o3)CC2C)c1 (configuration not stated)	-18.4%
Cc1ccc(S(=O)(=O)[N-]c2nc3ccccc3nc2-n2cc[n+](Cc3ccccc3)c2)cc1	-6.9%
O=C(COC(=O)c1ccccc1)c1ccc(S(=O)(=O)N2CCCCC2)cc1	-5.0%
COc1cc(/C=C2/C(=N)N3C=CSC3=NC2=O)ccc1OCCOc1ccc(NC(C)=O)cc1	-13.3%
O=C(CCNC(=O)c1ccc(Br)cc1)NCC1CCCO1 (configuration not stated)	-11.8%
O=C1CC(SCCc2nc3ccccc3[nH]2)C(=O)N1c1ccc(F)c(Cl)c1 (configuration not stated)	-5.3%
CCCOCC1CC2(SC(=Nc3ccc(C)cc3)NC2=O)C(=O)O1 (configuration not stated)	5.3%
CCCN(c1ccccc1F)S(=O)(=O)c1ccc2c(c1)C(C)(C)C(=O)N2C	-2.0%
CC(C)OC(=O)CC(NC(=O)OC(C)(C)C)c1ccccc1 (configuration not stated)	-13.2%
N#CC1=C(SCc2ccccc2)NC(=O)CC1c1ccc(O)cc1 (configuration not stated)	-1.1%
COc1ccc(-n2ncc(C(C)NS(=O)(=O)c3cccs3)c2C)cc1 (configuration not stated)	5.7%
CSc1nc(C)[nH]c(=O)c1C#N	-23.7%
CCCCC[C@H](O)/C=C/C=C\CCCCCCCC(=O)O	?
Cc1c(-c2cccc(NC(=O)c3cccs3)c2)nc2ncccn12	-6.0%
Cc1nn(-c2ccccc2)c(Cl)c1/C=N/NC(=O)c1ccccc1NS(=O)(=O)c1cccs1	15.2%
Cc1ccc(NC(=O)C2CCCC2)cc1S(=O)(=O)N1CCOCC1	21.7%
CCOC(=O)CSc1nnc(CSc2nc(N)c3c(C)c(C)sc3n2)n1-c1ccccc1	9.2%

Five entries from above, sorted by the value under VDR inh, low to high:
canonical_smiles	VDR inh
CC(=O)N1CCN(C(=O)c2cccc(S(=O)(=O)NCc3ccccc3)c2)CC1	-10.4%
COc1ccccc1C(C)NC(=O)Cc1ccc(S(=O)(=O)N2CCOCC2)s1 (configuration not stated)	-5.6%
O=C(CN1C(=O)c2ccccc2C1=O)NCC(=O)OCC(=O)c1cccc([N+](=O)[O-])c1	2.6%
C#CC(CC)(CC)NC(=O)c1nn(-c2ccccc2Cl)c(C)cc1=O	4.9%
C=CCn1c(CNC(=O)CCC)nc2ccccc21	10.5%

Screening results as filed in PubChem BioAssay.
